# Screening results (PubChem BioAssay)
# LANA-H2A inh – blockers of LANA interaction with H2A/H2B – biochemical, FP readout, HTS, primary screen; Protein LANA1 (Human herpesvirus 8 type P (isolate GK18)), Q9QR71; cell-free LANA-H2A/H2B peptide, fluorescence polarization; inhibition, % (test concentration not listed); 320,000 tested, 0.6% active; in the data active means inhibition mostly above about 10%, no sharp cut-off; inactive means mostly below about 6.7%;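 further: stock transfer was 7.5 nL into about 10 µL; 0% = median of vehicle wells and 100% = median of positive control wells; one replicate is shown; the record names a cut of 25% in any replicate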
# UCH37 DUB inh – inhibitors of human UCH37 deubiquitinase, primary screen, biochemical, Ub-AMC cleavage, fluorescence. purified proteasome/UCH37. inhibition, % (no concentration beside the values). 330,000 tested, 0.33% active. AID 588478, 2011;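 active means mean of two replicates above 20%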;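 further: 0% = compound-free wells with enzyme and 100% = wells lacking proteasome; stock transfer was 100 nL into about 20 µL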
# Target sequence (Q9Y5K5 whole entry, looked up): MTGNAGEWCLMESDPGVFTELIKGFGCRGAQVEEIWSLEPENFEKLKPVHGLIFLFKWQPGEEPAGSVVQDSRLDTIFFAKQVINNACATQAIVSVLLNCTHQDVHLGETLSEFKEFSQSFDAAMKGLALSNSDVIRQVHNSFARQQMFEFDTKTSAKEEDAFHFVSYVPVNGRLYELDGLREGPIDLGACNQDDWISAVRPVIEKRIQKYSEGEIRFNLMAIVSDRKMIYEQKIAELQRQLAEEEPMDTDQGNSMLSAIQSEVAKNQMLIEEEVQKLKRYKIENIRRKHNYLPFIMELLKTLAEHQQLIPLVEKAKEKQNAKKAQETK
#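 system = Proteasome-associated human UCH37 deubiquitinase | amount = 0.15 nM proteasome as dispensed | medium = pH 7.4 Tris-HCl (50 mM) with ovalbumin, ATP-MgCl2, DTT | incubation = 30 min preincubation with enzyme, 25 min cleavage at room temperature | detection = AMC fluorescence 355/460 nm | read-out basis = percent inhibition | controls = no-proteasome and no-compound wells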
# A1 inh – caspase 3/7 activation in MEF A1-2A-BIM cells, primary screen, A1 inhibitor project, cell-based, luminescence, HTS. Caspase-Glo 3/7 luminescence, 3 h; percent of clofoctol response, vehicle zero. 330,000 tested, 0.066% active. caspase activation, % (test concentration not listed). AID 2462, 2010;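 active means over half of replicate activation scores above 10%, or exactly half above 10 with the replicate mean above 10; inconclusive means replicate mean below 10 yet half the replicates above 10; inactive means over half of replicates below 10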;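 further: wells of about 30 µL received 50 nL stock; many hits fall short of the cut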
# B2AR ag – beta2AR agonists driving receptor internalization, primary screen, cell-based, FAP fluorogen, flow cytometry. Beta-2 adrenergic receptor (Homo sapiens), P07550. Am2.2-beta2AR cells; reference of the scale not given here. response, % (no concentration beside the values). 340,000 tested, 0.43% active;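 active means response above a set limit, near 3 SD of response in nonfluorescent compounds, cut at about 42% in these data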;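 further: stock transfer was 100 nL into about 11 µL; a reference agonist was the positive control; negative values mostly stem from fluorescent compounds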
# Target sequence (P07550 whole entry, looked up): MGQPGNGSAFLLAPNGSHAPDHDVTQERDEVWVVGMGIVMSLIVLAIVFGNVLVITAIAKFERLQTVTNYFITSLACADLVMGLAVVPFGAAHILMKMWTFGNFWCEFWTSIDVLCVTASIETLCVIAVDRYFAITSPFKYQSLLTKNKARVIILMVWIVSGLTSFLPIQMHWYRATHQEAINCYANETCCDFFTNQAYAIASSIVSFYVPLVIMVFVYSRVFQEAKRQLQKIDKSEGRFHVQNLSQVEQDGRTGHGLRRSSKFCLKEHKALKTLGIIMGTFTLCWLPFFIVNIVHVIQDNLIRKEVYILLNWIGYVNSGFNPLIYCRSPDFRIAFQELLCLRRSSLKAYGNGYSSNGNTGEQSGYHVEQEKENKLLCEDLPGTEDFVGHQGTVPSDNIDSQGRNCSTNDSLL
# Vif TR-FRET – inhibitors of Vif binding to APOBEC3G peptide, primary screen, biochemical, TR-FRET, GST-Vif 1-94, biotin-A3G peptide, dose response retest (AID 1117319); Virion infectivity factor (Human immunodeficiency virus type 1 group M subtype B (isolate …; TR-FRET GST-Vif / biotin-A3G peptide binding; higher % means a stronger effect; test concentration not given here; strong numbers were not always called active; inhibition, %, or IC50 in µM where a hit was titrated; 260,000 tested, 0.57% active;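 active means above the screen mean plus three standard deviations and confirmed in dose response; inconclusive means results disagree or hit not tested in dose response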;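 further: Vif residues 1-94 fused to GST binding biotinylated APOBEC3G peptide 110-148; 0% = full assay without inhibitor and 100% = GST in place of GST-Vif; retest series ran down from 100 µM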
# Ecoli growth – E. coli growth inhibition, primary screen, OD600. OD600 absorbance (no concentration beside the values). AID 1053175, 2014. Escherichia coli growth, 23 h; active compounds read low. 330,000 tested, 0.21% active;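 active means OD600 absorbance below the run mean of sample wells minus 3.6 SD, in any replicate, cut at about 0.56 in these data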;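 further: stock transfer was 300 nL into about 60 µL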
# HNF4A DNA FP – change in binding of human HNF4A to DNA, primary screen, biochemical, fluorescence polarization, FITC-DNA. AID 1224865, 2016. 360,000 tested, 0.3% active. 1 h. activity change, % at 10 µM; in the data active means activity change above about 30%, passing the limit was not always enough;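 further: controls were the assay level and a saturating level of protein; the project sought stronger binding though the title names inhibitors; some compounds called inactive have numbers as strong as hits; positive values seem to mean higher polarization but the record does not say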
# * marks the source's active call; other numbers are inactive results; ? = inconclusive; . = no result given; & = joins results of further samples.
canonical_smiles	LANA-H2A inh	UCH37 DUB inh	A1 inh	B2AR ag	Vif TR-FRET	Ecoli growth	HNF4A DNA FP
O=CN1CCc2scc[n+]2-c2ccccc21	3.2	2.5	0.1	4	15%	0.74	-3.8
C/C(=N\NC(=O)c1ccccc1)c1c(C)[nH]n(-c2ccccc2)c1=O	0.0	.	-0.2	-3	.	.	0.2
Cc1nc2ccccc2n1S(=O)(=O)c1cc(C(=O)O)ccc1Cl	4.6	0.3	0.8	-2	-13%	0.64	2.9
CC(=O)Nc1ccc(S(=O)(=O)NCC(=O)NCCCc2ccccc2)cc1	-2.4	0.4	-1.0	6	.	0.68	-3.7
CCC(=O)OC1(C)C(=O)C=C2C=C(c3ccsc3)OC=C2C1=O (stereo unspecified)	2.3	2.1	-1.3	5	?	.	7.8
O=C1N(CN2CCN(c3cccc(Cl)c3)CC2)c2ccccc2C12OCCCO2	4.6	5.0	2.1	2	0%	0.62	1.6
CCCS(=O)(=O)N1CCCC(C(=O)N2CCOCC2)C1 (stereo unspecified)	-1.0	0.9	-1.2	0	2%	0.7	-1.4
COCCC(=O)N1CCC(Oc2ccc(C(=O)N3C[C@H]4CC[C@H]3C4)cc2)CC1	-3.4	0.0	-0.6	-3	.	0.67	2.1
COc1ccc(-c2cc(C(=O)N3CCCCC3)c3ccccc3n2)cc1OC	-6.6	-21	-0.6	10	-8%	0.7	-1.0
CC1(C)C2CCC(C2)C1C/C=N/NC(N)=S (stereo unspecified)	-4.2	.	-0.9	1	4%	.	0.7
O=C(C1CCN(S(=O)(=O)N2CCC3(CC2)OCCO3)CC1)N1CCC(Cc2ccccc2)CC1	-3.4	2.8	1.2	-15	-4%	0.68	-0.8
C=C(C)COc1ccc2c3c(c(=O)oc2c1OCC(=C)C)CCC3	2.8	-38	-0.1	-2	-5%	0.66	-0.5
COc1ccc(-c2noc(CCC(=O)NCCc3ccccc3)n2)cc1OC	-3.1	-0.7	-0.6	2	-7%	0.68	0.2
COc1ccc(OCCC(=O)c2ccc(OC)cc2)cc1	8.2	1.5	2.6	5	-4%	0.72	-1.7
O=C(O)c1cccc(S(=O)(=O)N(Cc2ccccc2)c2ccccc2)c1	4.2	2.1	1.1	6	-7%	0.73	-0.5
CC(C(=O)NC(C)(C)C)N(C(=O)CS(=O)CC(=O)Nc1ccc(F)cc1)C1CCCC1 (stereo unspecified)	-2.9	-0.7	-0.1	8	-10%	0.66	2.0
CCOC(=O)N/N=C(\C)c1ccc(C)c([N+](=O)[O-])c1	1.6	.	-1.0	-17	.	.	-1.2
Cc1nc2sc(C(c3ccco3)N3CC(C)OC(C)C3)c(O)n2n1 (stereo unspecified)	0.3	1.2	-0.2	-6	-1%	0.71	-1.5
CC(C)/C=C1\CCc2c([nH]c3ccccc23)C1=O	2.3	-4.0	-0.4	6	2%	0.73	0.3
O=C1C2C3C=CC(C3)C2C(=O)N1CCN1CCN(Cc2ccc([N+](=O)[O-])cc2)CC1 (stereo unspecified)	1.6	2.3	0.0	-9	-4%	0.69	2.9

# Arranged by the number under Vif TR-FRET (smallest number first): 3 of the compounds above.
smiles	LANA-H2A inh	UCH37 DUB inh	A1 inh	B2AR ag	Vif TR-FRET	HNF4A DNA FP
COc1ccc(-c2cc(C(=O)N3CCCCC3)c3ccccc3n2)cc1OC	-6.6	-21	-0.6	10	-8%	-1.0
COc1ccc(OCCC(=O)c2ccc(OC)cc2)cc1	8.2	1.5	2.6	5	-4%	-1.7
CC(C)/C=C1\CCc2c([nH]c3ccccc23)C1=O	2.3	-4.0	-0.4	6	2%	0.3

# (next part)
canonical_smiles	LANA-H2A inh	UCH37 DUB inh	A1 inh	B2AR ag	Vif TR-FRET	Ecoli growth	HNF4A DNA FP
CCn1c(=O)n(CC)c2cc([N+](=O)[O-])ccc21	-5.9	11	2.2	1	-2%	0.68	-3.4
O=C(CN1C(=O)c2ccccc2S1(=O)=O)c1cccc(Br)c1	5.0	0.1	-0.3	-7	.	0.72	5.8
CCCNc1ncc2c(=O)[nH][nH]c(=O)c2n1	.	-0.3	.	-3	5%	0.68	-2.1
CC1Cc2ccccc2N1S(=O)(=O)c1cccc(C(=O)N2CCCCC2)c1 (stereo unspecified)	.	-1.0	.	-1	-1%	0.66	1.6
Nc1nc(SCc2ccccc2Cl)[nH]c(=O)c1-c1ccccc1	5.3	2.8	-0.6	4	1%	0.69	1.0
COc1cc(OC)cc(-c2nnc(NC(=O)CCS(=O)(=O)c3ccc(C)cc3)o2)c1	0.9	1.9	-0.5	12	.	0.65	3.4
Cc1ccc(Nc2nc(Cl)c(C=O)s2)cc1Cl	5.1	-17	-6.5	-45	6%	0.67	44*
CNC(=O)C1CCN(S(=O)(=O)c2c(C)noc2/C=C/c2ccc(C)cc2)CC1	4.9	0.4	-0.5	-4	.	.	1.7
CCOCCCNC(=O)CCCn1nc(C)n2c(cc3sccc32)c1=O	2.8	2.4	0.0	-3	-3%	0.76	1.5
CCOc1ccc(Nc2ccc(C(=O)O)cc2[N+](=O)[O-])cc1	1.5	5.5	0.3	1	-3%	0.69	-2.2
COCCn1nnnc1C(c1ccccc1OC)N1CCN(c2ccccc2F)CC1 (stereo unspecified)	-4.6	-0.2	0.4	0	0%&5%	0.79	1.8
CC(C)(C)c1cc(-c2n[nH]c(=S)n2-c2ccccc2F)n[nH]1	2.3	2.8	-0.2	-7	1%	0.67	-3.6
Cc1nnsc1C(=O)N1CCCC(Nc2ccc(C(C)C)cc2)C1 (stereo unspecified)	3.5	1.9	-0.2	2	.	0.68	-4.5
O=C(Nc1ccc2c(c1)OCO2)C1CC(=O)N(c2cccc(Cl)c2)C1 (stereo unspecified)	2.2	2.7	1.1	2	.	0.7	7.3
COC(=O)Cn1c(=O)c2c(n(Cc3ccccc3)c1=O)N/C(=C/c1ccc(Br)cc1)C2=O	4.1	.	0.0	7	-10%	.	14
Cc1c(OCC(=O)N[C@@H](Cc2c[nH]c3ccccc23)C(=O)O)ccc2c1oc(=O)c1ccccc12	1.0	-35	0.7	-8	.	0.74	0.3
O=C(NCC1CCCO1)C1CCCN1C(=O)NC1CCCCC1 (stereo unspecified)	2.7	1.7	0.5	-2	11%	0.68	-0.5
O=C(CC(NC(=O)c1ccccc1Cl)c1ccccc1)Nc1ccc2c(c1)OCO2 (stereo unspecified)	-4.3	0.6	0.2	6	0%	0.7	1.3
CCC(C)[C@H](NC(=O)N1CCC(C)CC1)C(=O)O (stereo partly specified)	0.4	6.0	0.5	8	-5%	0.67	5.5
O=C(NCC1CCCO1)c1nn2cccnc2c1Cl (stereo unspecified)	-0.8	1.1	-0.1	-7	0%	0.74	-3.0

# Two records drawn at random from the list so far:
canonical_smiles	LANA-H2A inh	UCH37 DUB inh	A1 inh	B2AR ag	Vif TR-FRET	Ecoli growth	HNF4A DNA FP
O=C(NCC1CCCO1)C1CCCN1C(=O)NC1CCCCC1 (stereo unspecified)	2.7	1.7	0.5	-2	11%	0.68	-0.5
Nc1nc(SCc2ccccc2Cl)[nH]c(=O)c1-c1ccccc1	5.3	2.8	-0.6	4	1%	0.69	1.0

# Remaining list, next part
canonical_smiles	LANA-H2A inh	UCH37 DUB inh	A1 inh	B2AR ag	Vif TR-FRET	Ecoli growth	HNF4A DNA FP
Cc1cc(C)cc(N(CC(=O)Nc2ccc(Br)cc2)S(=O)(=O)c2c(C)[nH]c(=O)[nH]c2=O)c1	-0.5	4.1	1.6	2	.	0.69	-0.7
CCCCNc1nc(=S)[nH]c2cc(OC)c(OC)cc12	1.5	4.5	0.4	3	-8%	0.67	0.6
Oc1[nH]c2ccccc2c1C=Nc1ccc2c(c1)OCCO2	.	.	.	22	15%	0.67	-0.7
Cc1c(C)n(Cc2ccccc2)c2ncnc(NCCCN(C)C)c12	0.2	2.6	1.1	-5	-3%	0.69	1.2
O=C(/C=C/c1cccc2ccccc12)c1ccncc1	1.0	1.9	0.2	20	.	0.7	5.1
COc1ccc(OCC(=O)NC(=O)c2ccccc2OC)c([N+](=O)[O-])c1	4.1	3.9	-0.8	-3	-9%	0.67	3.4
CC(Sc1nc2ccccc2[nH]1)C(=O)NC1CCCCC1C (stereo unspecified)	-3.0	.	0.2	-8	.	.	-3.4
O=C(CC1SC(N2CCCCC2)=NC1=O)Nc1ccc(C(=O)O)cc1 (stereo unspecified)	2.0	0.8	-0.2	0	?	0.64	-3.2
COc1ccc(C(C[N+](=O)[O-])c2c(-c3ccccc3)cc3ccccn23)cc1OC (stereo unspecified)	-0.1	-9.6	1.7	14	?	0.73	1.0
CCC(C)c1ccccc1N1CC(C(=O)NCCc2ccc(OC)c(OC)c2)CC1=O (stereo unspecified)	.	4.4	0.9	-1	-4%	0.63	1.5
CN(C1CCCCC1)S(=O)(=O)c1cn(C)c(=O)n(C)c1=O	8.8	0.2	0.3	-9	-5%	0.7	-2.5
CCc1c(C)nc2ncnn2c1NCc1cccs1	2.2	-1.3	0.1	-2	-3%	0.65	-0.4
O=C(CN1CCN(c2ccccc2O)CC1)Nc1cc([N+](=O)[O-])ccc1Cl	0.8	.	-0.6	3	24%	.	3.1
Cc1ccc(S(=O)(=O)c2nc(S(=O)(=O)c3ccccc3)sc2N2CCN(C)CC2)cc1	.	2.1	.	-9	-4%	0.7	-3.7
CCOC(=O)Cn1c(=O)c2c(nc(Br)n2Cc2ccc(Cl)cc2)n(C)c1=O	1.0	2.9	0.2	.	.	0.8	.
Cc1ccc(-c2ccc(CCC(=O)O)n2NC(=O)c2ccco2)cc1	-3.2	3.8	0.9	-1	-3%	0.71	-1.2
C[C@@H]1CN([C@H](C)CO)C(=O)c2cccc(NS(=O)(=O)c3cccs3)c2O[C@H]1CN(C)Cc1ccccc1	1.2	2.0	-0.4	-1	.	0.79	2.8
Cc1ccc(-n2nc(C)c3c(C)c(CCC(=O)NCC4CCCO4)c(=O)n(C)c32)cc1 (stereo unspecified)	0.7	-2.7	0.7	12	.	0.7	7.0
COCCN1CN=C(NS(=O)(=O)c2ccc(C)cc2)NC1	-1.3	1.2	1.8	0	.	0.68	1.6
O=C(CSc1nnc(-c2ccncc2)n1Cc1ccco1)Nc1nccs1	-2.2	4.8	0.6	-12	?	0.71	4.9

# More entries.
canonical_smiles	LANA-H2A inh	UCH37 DUB inh	A1 inh	B2AR ag	Vif TR-FRET	Ecoli growth	HNF4A DNA FP
O=[N+]([O-])c1cccc(S(=O)(=O)c2ccc(NCCO)c([N+](=O)[O-])c2)c1	-1.4	32*	1.2	-6	14%	0.69	-1.3
CC(C)CCN1CC(C(=O)NC(C)C)CC1=O (stereo unspecified)	-0.6	0.7	-0.3	-2	2%	0.7	1.1
CC(C)[C@@H](NC(=O)C1CCN(C(=O)[C@@H]2CCCN2C(=O)OC(C)(C)C)CC1)C(=O)NCc1ccc(F)cc1	1.2	-1.5	0.5	0	.	0.73	6.5
Cc1ccc(CNC(=O)CCCOc2cc(=O)n(C)c3ccccc23)o1	-3.8	3.9	-0.3	-7	-4%	0.72	1.2
CCOCCCNC(=S)NCCCNc1nc2c(C)c(C)ccc2cc1C#N	.	-56	.	-16	.	0.69	1.7
Cc1ccc(-c2cc(C(=O)NN3CCOCC3)c3cc(Br)ccc3n2)o1	-2.6	-126	-0.7	-11	30%	0.72	4.2
CCc1cc(C(=O)NC2CCCN(Cc3ccccc3F)C2)n(C)n1 (stereo unspecified)	.	0.7	.	7	.	0.69	0.6
O=C(Cn1ccn(-c2ccc(F)c(Cl)c2)c(=O)c1=O)NCCc1ccccc1	2.2	-2.8	0.8	1	-2%	0.64	3.2
